GIRK2 act – activators of human GIRK2 potassium channels | HEK293-GIRK2 thallium flux, Thallos fluorescence | AID 1259325 | calls only for hits at 25 µM | P48051 | 63,000 compounds, 0.05% hits;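 active = among the strongest 0.2% of first-round signals and kept after retests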;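 note: first round at about 10 µM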
Target sequence (P48051 whole entry, looked up): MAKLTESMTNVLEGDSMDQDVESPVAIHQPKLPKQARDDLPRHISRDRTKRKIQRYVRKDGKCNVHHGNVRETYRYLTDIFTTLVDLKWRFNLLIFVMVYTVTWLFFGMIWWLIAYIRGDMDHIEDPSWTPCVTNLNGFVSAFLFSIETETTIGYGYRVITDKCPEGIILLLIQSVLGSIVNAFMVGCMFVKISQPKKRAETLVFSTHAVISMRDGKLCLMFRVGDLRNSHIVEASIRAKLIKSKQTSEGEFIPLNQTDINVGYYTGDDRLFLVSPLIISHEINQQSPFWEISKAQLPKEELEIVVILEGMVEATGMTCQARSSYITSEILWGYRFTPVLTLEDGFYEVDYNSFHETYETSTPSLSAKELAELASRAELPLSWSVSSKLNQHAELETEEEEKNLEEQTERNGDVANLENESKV
Calls only; i = inactive. Only part of the results is shown, so the mix of outcomes need not match the whole.

GIRK2 act	mol
i	COc1ccc(-n2ccn(CC(=O)Nc3ccccc3OC)c(=O)c2=O)cc1
i	COc1ccc(CC(=O)Oc2c(S(=O)(=O)c3ccccc3)c(C)nn2C(C)(C)C)cc1OC
i	O=S(=O)(c1cccc(C(F)(F)F)c1)N1CCC(Oc2nc3ccccc3s2)CC1
i	COc1ccc(C)cc1NCCn1c(C)c(C)n2c3c(=O)[nH]c(=O)n(C)c3nc12
i	Cc1cccc(OCC(O)CSc2ccccn2)c1 (centres undefined)
i	COc1ccc(CC(=O)Nc2cc(C3CC3)nn2-c2nc3c(c(=O)[nH]2)CCC3)cc1OC
i	Cc1cnc(NC(=O)C2CSCCC(=O)N2)s1 (centres undefined)
i	Cc1nc(-c2cccs2)sc1CNC(=O)CSc1nc2ccccc2s1
i	CC/C=C\C/C=C\C/C=C\C/C=C\C/C=C\CCCC(=O)O[C@H](COCCCCCCCCCCCCCCCC)COP(=O)([O-])OCC[N+](C)(C)C
i	CCc1ccc(S(=O)(=O)c2cnc(N3CCN(c4ccccc4OC)CC3)nc2N)cc1
i	Cc1ccc2c(=O)c(C(=O)N3CCCC3)cn(CC(=O)NCc3ccccc3Cl)c2n1
i	Cc1cc(C)c(NC(=O)Cn2ccn(-c3ccccc3)c(=O)c2=O)c(C)c1
i	CN1C(=O)c2cc(NC(=O)Nc3ccc(F)cc3)ccc2Oc2ccccc21
i	Cc1cc(C(O)CCNC(=O)NCc2ccc(F)cc2)c(C)o1 (centres undefined)
i	Cc1ccc(C2=NC3(CCN(CC(=O)Nc4cc(C)ccc4C)CC3)NC2=O)cc1
i	O=C(NCC1CCN(Cc2cccs2)CC1)c1ccc2nsnc2c1
i	Cc1cncn(CC(=O)NCCc2csc(-c3ccccc3)n2)c1=O
i	COc1cccc(NC(=O)CCc2nc3sc4c(c3c(=O)[nH]2)CCCCC4)c1
i	Cc1cc(C(=O)N2CCN(Cc3c(C)noc3C)CC2)no1
i	CC(C)N(C(=O)CSc1nnc(-c2cccnc2)o1)c1ccccc1
i	O=C(CCN1CCC(Cc2ccccc2)CC1)Nc1ccc2c(c1)OCCO2
i	Cn1nc(-c2ccccc2)cc1C(=O)N1CCN(C(=O)c2cnn3ccccc23)CC1
i	COc1ccc2c(c1)c(CC(=O)NCc1ccc([N+](=O)[O-])cc1)c(C)n2C(=O)c1ccc(Cl)cc1
i	Cc1ccc2nc(N(CCCn3ccnc3)C(=O)c3ccc4c(c3)OCCO4)sc2c1
i	CCCCOc1ccc(-c2cc3c(=O)n(CC(=O)NCCc4ccccc4)ccn3n2)cc1
i	CCN1C(=O)c2cc(NC(=O)Nc3ccc4c(c3)OCO4)ccc2Oc2ccccc21
i	CCS(=O)(=O)N1CCCc2cc(NS(=O)(=O)c3cc(C)c(C)cc3OC)ccc21
i	O=C(c1cc(=O)c(OCc2ccccc2)co1)N1CCc2ccccc21
i	COc1cccc(C(=O)Nc2nnc(-c3cc(OC)c(OC)c(OC)c3)o2)c1
i	O=C(Nc1ccon1)C1CCCN(c2cc(-n3cccn3)ncn2)C1 (centres undefined)
i	Cc1nc(-c2cccs2)sc1CNS(=O)(=O)N(C)C
i	O=C(CSc1ncc(-c2cccc([N+](=O)[O-])c2)n1-c1ccccc1)N1CCCCC1
i	Cc1ccc(/C=C/S(=O)(=O)NCC(c2ccsc2)N2CCOCC2)cc1 (centres undefined)
i	CCn1c(=NC(=O)CSC(C)=O)sc2cc(OC)ccc21
i	O=C(NCc1ccncc1)c1nnn(-c2ccc(Cl)cc2)n1
i	CC(Oc1ccc2c(c1)O/C(=C\c1cccc(Br)c1)C2=O)C(=O)O (centres undefined)
i	CCCNC(=O)Cn1nc2c(c1NC(=O)COc1ccc(C(C)C)cc1)CSC2
i	Cc1ccc(Oc2ccc(N(C)S(=O)(=O)c3ccccc3Cl)cc2)nn1
i	Cc1c(NS(=O)(=O)N2CCCCC2)c(=O)n(-c2ccccc2)n1C
i	O=C(CSc1nnc2ccccn12)c1ccc2c(c1)OCO2

Given as tab-separated lines: part of the list above.
structure	GIRK2 act
CCCCOc1ccc(-c2cc3c(=O)n(CC(=O)NCCc4ccccc4)ccn3n2)cc1	i
CCN1C(=O)c2cc(NC(=O)Nc3ccc4c(c3)OCO4)ccc2Oc2ccccc21	i
CCS(=O)(=O)N1CCCc2cc(NS(=O)(=O)c3cc(C)c(C)cc3OC)ccc21	i
O=C(c1cc(=O)c(OCc2ccccc2)co1)N1CCc2ccccc21	i
COc1cccc(C(=O)Nc2nnc(-c3cc(OC)c(OC)c(OC)c3)o2)c1	i
O=C(Nc1ccon1)C1CCCN(c2cc(-n3cccn3)ncn2)C1 (centres undefined)	i
Cc1nc(-c2cccs2)sc1CNS(=O)(=O)N(C)C	i
O=C(CSc1ncc(-c2cccc([N+](=O)[O-])c2)n1-c1ccccc1)N1CCCCC1	i
Cc1ccc(/C=C/S(=O)(=O)NCC(c2ccsc2)N2CCOCC2)cc1 (centres undefined)	i
CCn1c(=NC(=O)CSC(C)=O)sc2cc(OC)ccc21	i
O=C(NCc1ccncc1)c1nnn(-c2ccc(Cl)cc2)n1	i
CC(Oc1ccc2c(c1)O/C(=C\c1cccc(Br)c1)C2=O)C(=O)O (centres undefined)	i
CCCNC(=O)Cn1nc2c(c1NC(=O)COc1ccc(C(C)C)cc1)CSC2	i
Cc1ccc(Oc2ccc(N(C)S(=O)(=O)c3ccccc3Cl)cc2)nn1	i
Cc1c(NS(=O)(=O)N2CCCCC2)c(=O)n(-c2ccccc2)n1C	i
O=C(CSc1nnc2ccccn12)c1ccc2c(c1)OCO2	i

Going on with the list:
GIRK2 act	mol
i	Cn1cc(C2=C(c3cn(C)c4ccc(OCc5ccccc5)cc34)C(=O)NC2=O)c2ccccc21
i	N#Cc1ccccc1NC(=O)CN1CCN(c2ccc(F)cc2)C1=O
i	CCOc1ccc(NC(=O)NCCCn2ccnc2-c2ccccc2)cc1
i	COc1cc(OC)c(OC)cc1/C=C1\Oc2cc(OCC(=O)c3ccccc3)ccc2C1=O
i	COc1ccc(CCS(=O)(=O)NCCN2CCN(c3ccccc3)CC2)cc1
i	COc1ccc(CCNC(=O)C2CCN(c3ccc(-c4ccccc4)nn3)CC2)cc1OC
i	CC1(C)O[C@@H]2C[C@H]3[C@@H]4CCC5=CC(=O)C=C[C@]5(C)[C@@]4(F)[C@@H](O)C[C@]3(C)[C@]2(C(=O)CO)O1
i	CSc1ncccc1C(=O)NCC1CCN(S(=O)(=O)c2cccnc2)CC1
i	Cc1ccc(NS(=O)(=O)c2ccc3c(c2)OCCO3)cc1N1CCCCC1=O
i	O=C(NC1CCS(=O)(=O)C1)c1ccc(-c2ccccc2Cl)o1 (centres undefined)
i	O=C(Nc1nc2c(s1)COCC2)c1c(F)cccc1F
i	COc1ccc(CCC(=O)NCC(c2cccs2)N2CCOCC2)cc1 (centres undefined)
i	COc1ccc(NC(=O)c2nnn(-c3ccc(C(C)C)cc3)c2C)cc1Cl
i	CC(C)OCCCN(Cc1ccco1)C(=O)c1nnn(-c2ccccc2)c1-c1ccccn1
i	CCOC(=O)c1ccc(NC(=O)CSc2nc3c(-c4ccccc4)c[nH]c3c(=O)n2CC)cc1
i	O=C(Nc1ccc(S(=O)(=O)c2ccccc2)cc1)c1cccc(S(=O)(=O)N2CCCCCC2)c1
i	Cc1onc(-c2ccccc2Cl)c1C(=O)Nc1cccc(-c2cnc3n2CCC3)c1
i	CC1CN(c2ccccc2)c2nc3c(c(=O)n(CCN4CCOCC4)c(=O)n3C)n2C1 (centres undefined)
i	CN(C)CC1COCCN1C(=O)c1cc(-c2ccco2)[nH]n1 (centres undefined)
i	O=S(=O)(NCc1ccc2c(c1)OCO2)C1CC1
i	COc1ccc(C2(C)NC(=O)N(CC(=O)Nc3cccc(OC)c3)C2=O)cc1 (centres undefined)
i	O=C(Cn1nc2c(c1NC(=O)Cc1noc3ccccc13)CSC2)NCC1CCCO1 (centres undefined)
i	COc1cc(C2C(C(=O)Nc3ccccc3OC)C(C)Nc3ncnn32)ccc1O (centres undefined)
i	CCOc1ccc(NC(=O)C2CCN(c3ccc(S(=O)(=O)c4ccc(C)cc4)nn3)CC2)cc1
i	O=C(NCC1CCN(C(=O)c2cccnc2)CC1)c1ccc(Cl)c(Cl)c1
i	O=c1c(-c2ccc3c(c2)OCCO3)coc2cc(OCc3ccc([N+](=O)[O-])cc3)ccc12
i	Cc1cc(NC(=O)C2CCN(C(=O)c3c[nH]c4ccccc34)CC2)no1
i	CCOc1ccc2ccccc2c1C(=O)N1CCC(c2nnc(-c3ccco3)s2)CC1
i	O=C(c1cccc(NS(=O)(=O)c2cccc(F)c2)c1)N1CCOCC1
i	O=S(=O)(Nc1cnoc1)c1ccc(F)c(Cl)c1
i	COCCN1CCC(CNC(=O)NC(c2ccccc2)c2ccccc2)CC1
i	COc1ccc(CCn2c(C)c(C)n3c4c(=O)n(C)c(=O)n(C)c4nc23)cc1OC
i	Cc1nc(-c2ccccc2F)sc1CNC(=O)COc1ccccc1F
i	O=C(/C=C/c1ccco1)NCC1CCN(C(=O)c2ccoc2)CC1
i	O=C(c1c2c(nn1C1CCS(=O)(=O)C1)CCC2)N1CCC(Cc2ccccc2)CC1 (centres undefined)
i	Cc1cc2oc(=O)cc(CNc3cccc(C(F)(F)F)c3)c2cc1O
i	COc1ccc(-c2[nH]ncc2-c2nc(-c3cc(OC)c(OC)c(OC)c3)no2)cc1OC
i	CCCSc1c(CCC)cnc2c1c(=O)n(C)c(=O)n2C
i	O=C(NCCc1ccoc1)C(=O)Nc1cccc(C(F)(F)F)c1
i	O=C(/C=C/c1ccccc1Cl)N1CCN(C(=O)c2cnn3ccccc23)CC1
i	O=C(Cn1c(=O)[nH]c2c(-c3ccccc3F)c[nH]c2c1=O)NCc1ccco1
i	Cc1ccc(-n2cc(C(=O)N3CCCCCC3)nn2)cc1
i	O=C(NCC1CCN(Cc2ccccc2)CC1)NC1CC1
i	O=C(Nc1ccnc2ccc(F)cc12)c1cccs1
i	COC(=O)c1cccc(-c2nc(-c3nnn(-c4ccc(F)cc4)c3C)no2)c1
i	CC(C)(C)c1cc(=O)n2[nH]cc(-c3ccccc3Cl)c2n1
i	COc1cccc(-c2[nH]ncc2-c2nc(-c3ccc(SC)cc3)no2)c1
i	Cc1cc2oc(=O)cc(CN3CCCCC3)c2cc1C
i	CCCN(C)c1nccn2c(=O)n(CC(=O)Nc3ccc(Cl)cc3F)nc12
i	COc1ccc(Cn2c(CO)cnc2SCC(=O)Nc2nc(C)cs2)cc1

(further entries)
GIRK2 act	mol
i	Cc1c(Cl)cccc1NC(=O)C1COCC(=O)N1Cc1ccccc1 (centres undefined)
i	COc1ccc(S(=O)(=O)NCc2cccnc2)cc1C
i	CCOC(=O)C1CCN(Cc2cc(=O)oc3cc(C)c(O)cc23)CC1
i	C=CCn1c(SCc2c(C)noc2C)nc2scc(-c3ccco3)c2c1=O
i	CC(C)(Oc1ccc(Cl)cc1)C(=O)N1CCC2(CC1)OCCCO2
i	O=C(CN1CN(c2cccc(F)c2)c2ncccc2S1(=O)=O)NC1CCCCC1
i	CCCn1c(-n2nc(C)cc2C)nc2c1c(=O)n(CCOC)c(=O)n2C
i	O=C(c1ccco1)N1CCN(Cc2nnnn2-c2ccccc2)CC1
i	CCC1=C(C(=O)OC)C(c2ccc(OC(F)F)cc2)n2ncnc2N1 (centres undefined)
i	CC(C)CC(=O)Nc1ccc(-n2cnc(C(=O)N3CCCCC3)c2)nc1
i	CS(=O)(=O)Nc1cccc(NC(=O)c2nnn(-c3ccc(Br)cc3)n2)c1
i	O=[N+]([O-])c1ccc(-c2nc3nc4ccccc4nc3n2Cc2ccco2)cc1
i	O=C(/C=C/c1ccco1)OC1CN(c2nc3c(F)cc(F)cc3s2)C1
i	Cc1cc(NC(=O)CN2CCC(Cn3c(C)nc4ccccc43)CC2)no1
i	Cc1cc(C)n(CC(=O)Nc2cccc(Cl)c2C)c(=O)c1S(=O)(=O)c1ccccc1
i	COc1cccc(Oc2nccn3c(=O)n(CC(=O)Nc4ccc(OC)cc4OC)nc23)c1
i	COc1ccc(-n2nc(C(=O)Nc3ccc4c(c3)OCO4)c(=O)cc2OC)cc1OC
i	COc1ccc(CC(C)(O)CNC(=O)c2ccc(-c3ccccc3)cc2)cc1 (centres undefined)
i	Cc1csc(C(=O)N2CC(c3nc4ccccc4[nH]3)C2)c1
i	Cc1nc2ccccn2c1C(=O)N1CCN(CC(F)(F)F)CC1
i	COc1ccc2nc(-n3nc(C)cc3NC(=O)c3ccc4ncsc4c3)sc2c1
i	COC(=O)Cc1c(/C(Cl)=C/C(=O)O)oc2cc(C)cc(O)c2c1=O
i	O=C(Nc1ccccc1)N1CCC(CSC2=NCCS2)CC1
i	O=C(NCc1ccc(Cl)cc1)N1C2CCC1COC2
i	Cc1cc(C(=O)Nc2ccc3c(C)c(C)c(=O)[nH]c3c2)no1
i	O=C(NCCOc1ccccc1)C1CC1
i	COc1ccc(N/C=C(\C#N)c2nc3ccccc3n2C)c(OC)c1
i	COCCOCC1CCN(S(=O)(=O)CCN2C(=O)CCCC2=O)CC1
i	O=C(NC(C(Cl)(Cl)Cl)S(=O)(=O)c1ccccc1)c1ccc(Cl)cc1 (centres undefined)
i	Cn1nc(C2CCN(S(=O)(=O)c3ccccc3)CC2)n(-c2ccccc2)c1=O
i	CN(CC(=O)NCc1ccc(OC(F)(F)F)cc1)c1nc2ccccc2s1
i	COc1cccc(-c2noc(CSc3nc4cc(-c5ccccc5)sc4c(=O)n3C)n2)c1
i	CCn1c(SCC(=O)N2CCCc3ccccc32)nc2c(-c3ccccc3)c[nH]c2c1=O
i	Cc1ccccc1Cn1c(=O)n(CC2CCC(C(=O)NCc3ccco3)CC2)c(=O)c2sccc21 (centres undefined)
i	CC(C)c1ccc(NC(=O)Cc2cc(=O)[nH]c(SCc3ccccc3)n2)cc1
i	O=C(Cn1ncn2nc(-c3ccccc3)cc2c1=O)Nc1ccccc1C(F)(F)F
i	O=c1c(-c2ccccc2)c(C(F)(F)F)oc2c3c(ccc12)OCN(Cc1ccccn1)C3
i	CCOc1ccc(C(=O)NC(C)C(=O)Nc2nc3ccccc3[nH]2)cc1 (centres undefined)
i	CCC(=O)N1CCN(c2nc3c(S(C)(=O)=O)cccc3s2)CC1
